Screens deposited in PubChem BioAssay by National Center for Advancing Translational Sciences (NCATS).
PINK1 modulator – A Quantitative High throughput Screen to Identify Chemical Modulators of PINK1 Expression. PINK1 immunofluorescence, high-content cytometry, 24 h. Potency, µM (doses to about 76.6 µM), for the others: at the top dose activation (PINK1 increase), actives largely listed as activators. 410,000 tested, 0.2% active. AID 624263, 2012; active = well fitted activation curve with a large enough effect; inconclusive = small, poorly fitted or top-dose-only effect; inactive = flat fitted curve, though single readings scatter; cell line not stated here;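 note: potency is the fitted concentration of half-maximal effect; % of control where 0% means no effect; nearly all actives have a fitted effect of over 65% in size; a mitochondrial uncoupler was the plate control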
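Decision-based qHTS: stable cells, 24 h exposure to five compound concentrations, CCCP as control. Fixed cells stained for PINK1 plus nuclear, mitochondrial and cell markers, cytometer read.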
D2 potentiator – Beta-Arrestin HTS for Positive Allosteric Modulators of the Human D2 Dopamine Receptor: Potentiators | D(2) dopamine receptor (Homo sapiens), P14416 | DiscoveRx D2 beta-arrestin cells, luminescence, 90 min; 100% = 57 uM dopamine signal | potentiation, % (no concentration beside the values) | 360,000 tested, 0.23% active | AID 624464, 2012; active = potentiation of 50% or more; inconclusive = 30% to 50%; inactive = 30% or less;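 note: compound concentration not given in the record; tested on top of an EC20 dose of dopamine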
Target sequence (P14416 whole entry, looked up): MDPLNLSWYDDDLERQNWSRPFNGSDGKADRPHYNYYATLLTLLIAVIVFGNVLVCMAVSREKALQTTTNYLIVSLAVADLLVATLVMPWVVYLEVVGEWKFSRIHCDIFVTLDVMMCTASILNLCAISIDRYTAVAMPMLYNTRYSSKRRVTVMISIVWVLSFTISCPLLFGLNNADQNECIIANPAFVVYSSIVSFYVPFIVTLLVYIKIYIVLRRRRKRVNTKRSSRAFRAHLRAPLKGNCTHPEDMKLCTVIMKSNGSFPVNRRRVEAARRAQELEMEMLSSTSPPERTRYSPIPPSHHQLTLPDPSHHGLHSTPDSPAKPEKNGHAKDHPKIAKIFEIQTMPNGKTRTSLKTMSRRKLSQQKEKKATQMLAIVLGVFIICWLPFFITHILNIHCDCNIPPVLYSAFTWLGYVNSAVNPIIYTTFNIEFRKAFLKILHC
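PathHunter beta-arrestin assay in DiscoveRx D2 cells. Compounds were added with an EC20 of dopamine (50 nM final) for 90 min at 37 deg C. Luminescence was read 1 h after detection reagent, with 57 uM dopamine as the EC100 control.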
Six1-Eya2 inh – qHTS Assay for Inhibitors of the Six1/Eya2 Interaction. AlphaScreen GST-Six1/His-Eya2 binding, biochemical; active compounds read low; control for the full effect not named in the record. 360,000 tested, 0.56% active. Homeobox protein SIX1 (Homo sapiens) + Protein phosphatase EYA2 (Homo sapiens), …. activity change, % (no concentration beside the values); in the data active = activity change below about -65%; inconclusive = about -30% to -65%; inactive = above about -30%; note: % is set by controls: 0 for no effect and ±100 for the full control effect
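Compounds are tested against tagged Six1 and Eya2 proteins bridged by glutathione donor and nickel acceptor beads; after a one-hour incubation at 37 °C without light, AlphaScreen emission is recorded.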
TRPV1 potentiator – HTS Assay for Compounds that Act as Potentiators of the Vanilloid Receptor 1; Transient receptor potential cation channel subfamily V member 1 (Homo sapiens), Q8NER1; TRPV1-expressing cells, Fluo-8 calcium influx, capsaicin EC20 potentiation; host cell line not named in the record; control for the full effect not named in the record; potentiation, % at 8.33 µM; 320,000 tested, 0.02% active; AID 540277, 2011; active means potentiation above 80%; inconclusive means 30% to 80%; inactive means below 30%; note: 0% is about no effect
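Fluo-8 calcium influx in TRPV1-expressing cells, kinetic read (ex 480/em 520 nm). Compound added and read 3 min for agonist activity, followed by capsaicin at EC20 final and 2 min further read for enhancement.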
Sfp inh – qHTS Assay for Inhibitors of Bacillus subtilis Sfp phosphopantetheinyl transferase (PPTase); Potency, µM, for inactives: max response, negative = inhibition, most hits filed as inhibitors; 310,000 tested, 3.5% active; Biochemical Sfp PPTase activity, qHTS; 4'-phosphopantetheinyl transferase ffp (Bacillus subtilis), Q9F4F7; AID 1490, 2009; active = well fitted inhibition curve with a large enough effect; inconclusive = small, poorly fitted or top-dose-only effect, or another doubt; inactive = no such curve, though single readings can be large or run the other way;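 note: the enzyme is Sfp with the accession as filed and its product quenches rhodamine fluorescence; potency is the fitted concentration of half-maximal effect; 0% = enzyme reaction without inhibitor and -100% = no enzyme wells; top concentration of the series not given in the record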
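Fluorescence-quenching assay with 15 nM Sfp, 5 uM rhodamine-CoA and 12.5 uM BHQ-2-labelled ybbR peptide in pH 7.6 Hepes/MgCl2 buffer. Enzyme was pre-incubated with compound for 15 min at room temperature. Rate was taken from the 30-min fluorescence change (525/598 nm).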
CtBP-E1A inh – qHTS Assay for Inhibitors of the CtBP/E1A Interaction; AlphaScreen GST-E1A/His-CtBP binding, 1536-well; active compounds read low; control for the full effect not named in the record; CtBP / adenovirus E1A interaction (AlphaScreen); 340,000 tested, 0.49% active; AID 651724, 2012; activity change, % (test concentration not listed); in the data active means activity change below about -65%; inconclusive means about -30% to -65%; inactive means above about -30%; note: % is set by controls: 0 for no effect and ±100 for the full control effect
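GST-E1A and His-tagged CtBP (125 nM each as 5X stock) were preincubated with pin-transferred compound for 2 h at 37 °C in the dark, then glutathione donor and nickel acceptor beads were added for 1 h before AlphaScreen reading.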
D2 ag – Beta-Arrestin HTS for Positive Allosteric Modulators of the Human D2 Dopamine Receptor: Agonists. D(2) dopamine receptor (Homo sapiens), P14416. DiscoveRx PathHunter D2 beta-arrestin, luminescence, 90 min; 100% = 57 uM dopamine signal. activation, % (concentration not given with the values). 360,000 tested, 0.084% active. AID 624465, 2012; in the data active = activation above about 40%; inconclusive = about 15% to 40%; inactive = below about 15%; note: compound concentration not given in the record; the text of the record calls up to 30% inactive
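DiscoveRx PathHunter D2 beta-arrestin cells (2,100/well) attached overnight, then compound-stimulated 90 min at 37 C in HBSS/10 mM HEPES/0.1% Tween-20 buffer; beta-galactosidase complementation read by luminescence after 1 h at ambient temperature. Dopamine 57 uM final (EC100) as control.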
* marks the source's active call; other numbers are inactive results; u = inconclusive; x = no result given; & = joins results of further samples; [ ] = dose if it differs, or a comment.

Order of results – Sfp inh	D2 ag	PINK1 modulator	TRPV1 potentiator	D2 potentiator	CtBP-E1A inh	Six1-Eya2 inh
NCC(=O)c1cccc2ccc[n+]([O-])c12
    8%	2.1	0.1%	-7	-3	x	0
O=C(Nc1cc(S(=O)(=O)N2CCCC2)ccc1Cl)c1ccncc1
    x	-0.1	1.8%	x	10	x	-2
N=c1sccn1CC(=O)Nc1ccc([N+](=O)[O-])cc1Cl
    -6%	3.4	-0.3%	3	-21	-10	3
COc1ccc(NC(=O)c2cccc3cccnc23)cc1S(N)(=O)=O
    -3%	0.5	30%	1	4	-14	-13
O=C(CCCCCN1C(=O)c2cccc3cccc(c23)C1=O)NCc1ccco1
    0%	-2.9	0.1%	4	10	0	15
O=C(CSc1nnc(-c2ccncc2)n1C1CC1)c1cccs1
    x	-1.4	0.2%	x	3	1	-1
C#CCN1C(=O)C(O)(CC(=O)c2ccc(OC)c(OC)c2)c2ccccc21 (stereo unspecified)
    17%	-1.5	4.0%[38.3 µM]	0	3	0	0
Cc1ccc(/C=N/NC(=O)CC2N=C(Cc3ccccc3)NNC2=O)cc1 (stereo unspecified)
    x	-7.5	1.6%	x	6	-6	4
O=C(Nc1nccs1)C1CCCCN1S(=O)(=O)c1ccccc1 (stereo unspecified)
    12%	-1.6	0.0%	2	-11	x	0
CN1C2CCC1CC(NC(=O)CSCc1ccc(Cl)cc1Cl)C2 (stereo unspecified)
    -5%	-2.3	-0.4%	6	-11	10	-3
NS(=O)(=O)c1ccc(NC(=O)COC(=O)COc2ccc(Cl)cc2)cc1
    19%	-2.8	-0.4%	10	0	-7	-1
NCC12CC3CC(C1)CC(CN)(C3)C2
    6%	-4.4	-4.6%	3	-8	2	-3
O=C(NCCN1CCCCC1)Nc1cccc(F)c1
    20%	5.7	0.8%	24	-19	7	6
CCCOc1ccc(C(=O)N2CCCC2C(=O)O)cc1 (stereo unspecified)
    25%	1.2	-0.4%[38.3 µM]	5	-8	-1	-1
Cc1cc(OCC(=O)NC(C)C)ccc1Cl
    15%	1.9	-1.4%	-9	2	-3	2

Order of results – Sfp inh	D2 ag	PINK1 modulator	TRPV1 potentiator	D2 potentiator	CtBP-E1A inh	Six1-Eya2 inh
COc1cc(C)ccc1OCCOCCOc1ccccc1Br
    3%	-2.2	1.9%	u	-17	43	24
Cc1nc(CNS(=O)(=O)c2ccc(Oc3ccccc3)cc2)cs1
    11%	2.2	1.3%[38.3 µM]	-19	-2	4	0
CCOC(=O)C(C)Sc1ncnc2c1c(-c1ccccc1)cn2-c1ccc(OC)cc1 (stereo unspecified)
    -3%	-3.7	2.6%	-3	-15	-20	-6
Cc1ccc(S(=O)(=O)NC2c3cccc4cccc(c34)C2Sc2nc(C)cc(C)n2)cc1 (stereo unspecified)
    11%	-1.3	2.9%	3	3	-1	-7
Cc1ccc(N2CCC3CC2c2cc(-c4ccc(C(F)(F)F)cc4)ccc23)cc1 (stereo unspecified)
    x	-11	19%	x	2	-3	-15
CC(=O)c1ccc(S(=O)(=O)Nc2ccc(C(=O)NCC(c3cccs3)N3CCOCC3)cc2)cc1 (stereo unspecified)
    x	-3.8	0.8%	0	-6	1	2
Cc1cc(C)cc(NC(=O)/C=C/c2ccc([N+](=O)[O-])s2)c1
    10%	2.7	u	-3	-13	3	2
OCCC1CN(CCCn2cccn2)CCN1Cc1ccccc1 (stereo unspecified)
    13%	-0.7	0.3%	4	-13	-1	4
CCCCOc1cc(CC2CNC(=O)N2)ccc1OC (stereo unspecified)
    -4%&4%	-0.3	0.5%&-0.6%	x	2	0	0
Cn1cccc1-c1cc(C(=O)N/N=C/c2ccccc2Cl)[nH]n1
    -3%	1.2	-0.5%	13	-28	-29	-23
CN1CCN(c2nnc(-c3cccs3)c3ccccc23)CC1
    -20%	-2.6	1.7%	11	-34	-3	-11
CCOC(=O)c1ccc(NC(=O)CN2C(=O)CN(C(C)=O)C2=S)cc1
    -1%	-3.2	-0.5%	-1	-24	x	4
Cc1noc(C)c1S(=O)(=O)NC(=O)C1(C)CCN1C(=O)C1(c2ccc(Cl)cc2)CCC1 (stereo unspecified)
    x	-4.2	-0.9%	x	1	10	8
COc1ccc(N(CC(=O)N2c3ccccc3CC2C)S(=O)(=O)c2c(C)nn(C)c2C)cc1 (stereo unspecified)
    27%	-2.6	2.2%	x	-8	-5	-1
CC(C)Nc1nc(NCCOc2ccccc2)c2sccc2n1
    x	-4.1	u	x	-13	0	-5

Order of results – Sfp inh	D2 ag	PINK1 modulator	TRPV1 potentiator	D2 potentiator	CtBP-E1A inh	Six1-Eya2 inh
CCCn1c(SCC(=O)N2CCOCC2)nnc1-c1ccncc1
    -1%	-1.8	3.6%	-1	4	9	-1
COc1ccc(CNS(=O)(=O)c2ccc3c(c2)N(C(C)=O)CC(C)S3)cc1 (stereo unspecified)
    4%	3.3	-0.7%	-2	-2	-1	1
O=C(c1ccco1)N1CCN(S(=O)(=O)c2cccc([N+](=O)[O-])c2)CC1
    22%	0.6	0.1%	1	6	-11	0
O=C(NCC1CCCO1)C1CC(=O)N(C2CCCCCC2)C1 (stereo unspecified)
    6%	1.8	x	4	12	12	5
Cc1ccc(C)c(NC(=O)CCc2nnc3ccc(NCc4ccco4)nn23)c1
    -13%	-3.9	1.7%	6	-2	x	-5
Cc1cc(C(=O)CSc2nnc(Cc3ccccc3)o2)c(C)n1Cc1ccc2c(c1)OCO2
    u	-0.8	-1.7%	-9	-2	-15	-10
Cc1ccc(S(=O)(=O)NCc2ccccc2)cc1C(=O)NCC(C)(C)N1CCOCC1
    x	-1.9	0.4%	0	-9	0	9
CCOC(=O)c1c(CN2CCC(C)CC2)oc2ccc(OC)cc12
    7%	-0.6	8.9%[38.3 µM]	-15	-8	-10	-17
COc1ccc(-n2c3nc4ccccc4nc3c3c(=N)oc(C)nc32)cc1
    16%	0.7	0.3%	-10	-7	5	3
Cc1noc(C)c1C(=O)N1CCC(C(=O)c2ccccc2)CC1
    3%	-1.3	2.3%	-4	-21	5	9
Cc1occc1C(=O)NNC1=CC(=O)CC(C)(C)C1
    8%	3.9	1.0%	5	13	2	7
CC1=C(C(=O)OCc2ccccc2)C(c2ccccc2OC(F)F)NC(=O)N1 (stereo unspecified)
    9%	2.2	-1.3%[38.3 µM]	0	-4	-9	0
CC(=O)c1c(COC(=O)c2ccco2)nc2ccccc2[n+]1[O-]
    -28%	0.7	1.7%	7	0	2	-12
COC/C=C/C1=CC2=CC(=O)C(C)(OC(=O)c3cnc4ccccc4n3)C(=O)C2=CN1C(CO)CO (stereo unspecified)
    3%&9%	3.4	0.5%	u	5	-1	-3
O=c1[nH]c2ccccc2cc1CN(Cc1cccnc1)S(=O)(=O)c1ccc([N+](=O)[O-])cc1
    5%	14	1.1%	17	-2	x	0

Order of results – Sfp inh	D2 ag	PINK1 modulator	TRPV1 potentiator	D2 potentiator	CtBP-E1A inh	Six1-Eya2 inh
CC(C)(Cc1ccc(O)cc1)NC(=O)SCc1ccccc1
    8%	2.4	5.6%	22	1	-1	-10
Cc1cccc(C(=O)NCC(=O)Nc2ccncc2)c1
    x	-0.6	2.9%	-10	17	-5	2
Cc1c[n+]([O-])ccc1[N+](=O)[O-]
    x	5.9	1.2%	x	6	6	1
COc1ccc([C@H]2CC(=O)C=C(c3ccc4cc[nH]c4c3)C2)cc1
    x	-1.7	2.3%	-13	-3	-4	-7
NC(=O)CC(NC(=O)c1cccc(Br)c1)c1ccc(N2CCN(c3ccc(F)cc3)CC2)c([N+](=O)[O-])c1 (stereo unspecified)
    11%	-2.5	3.2%	-9	-13	0	-5
CCOC(=O)c1sc(NC(=O)C2CC(=O)N(c3ccc(OCC)cc3)C2)nc1C (stereo unspecified)
    0%	-4.2	0.1%	-10	-3	-5	3
C[N+]1(CCn2ccc3ccccc32)CCCCC1
    20%	-5.3	8.2%	3	-7	x	0
CCOC(=O)c1ccc(N2C(=O)C(O)=C(C(C)=O)C2c2ccccn2)cc1 (stereo unspecified)
    10%	-2.9	3.0%	-3	3	0	5
CCOc1ccc(N2C(=O)C3C(c4ccccc4F)NN(C(=O)c4ccc(C)cc4)C3C2=O)cc1 (stereo unspecified)
    6%	1.0	-0.1%	28	0	0	7
COc1ccc(NC(=O)CN2C(=O)COc3ccc(S(=O)(=O)N4CCOCC4)cc32)cc1Cl
    7%	3.3	0.9%&0.6%	2	-1	-92*	6
O=C(COc1ccc(F)cc1Br)Nc1ccccc1N1CCOCC1
    x	-4.7	9.1%	-5	-36	17	0
Cn1c(=O)[nH]c(=O)c2c1nc(N1CCN(CCO)CC1)n2Cc1ccccc1Cl
    12%	-4.9	3.1%	-4	-1	11	-2
c1ccc(-c2ccccc2-c2nc(-c3ccncc3)no2)cc1
    u	3.1	-1.3%	10	-3	6	15
COc1ccc(CNC(C)CCc2ccccc2)cc1 (stereo unspecified)
    -2%	3.5	2.4%	-4	-25	1	-1
Cc1cc(C(=O)NCCCC(=O)O)c(C)o1
    12%	-3.5	x	-4	-14	-1	-1
CC1CCN(S(=O)(=O)c2ccc3[nH]c(=O)ccc3c2)CC1
    9%	4.8	5.5%	-6	0	7	-1
COc1cc(/C=N/NC(=O)C(NC(=O)c2ccccc2)c2n[nH]c(=O)c3ccccc23)ccc1OCC(N)=O (stereo unspecified)
    18%	-3.9	0.5%	12	0	-5	-5
CC1(c2ccc(OC(F)F)cc2)NC(=O)N(CC(=O)Nc2ccc(S(N)(=O)=O)cc2)C1=O (stereo unspecified)
    15%	0.9	-2.0%	-4	-8	x	1

Part of the list above, limited to Sfp inh, PINK1 modulator and D2 ag.
molecule,Sfp inh,PINK1 modulator,D2 ag
COc1ccc(CNC(C)CCc2ccccc2)cc1 (stereo unspecified),-2%,2.4%,3.5
Cc1cc(C(=O)NCCCC(=O)O)c(C)o1,12%,x,-3.5
